PrP 5UTR inh: suppresses PrP 5' UTR mRNA reporter expression. cell-based PrP 5' UTR mRNA reporter, plate reader. inhibition, % (test concentration not listed). actives 0.35% (n = 340,000). AID 488862;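 active = every replicate at 50% or more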;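 note: 0 = median of the neutral control wells; tested in H4 reporter cells; numbers are from one replicate; inactives centre near -14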
ugtP null kill: compounds lethal to S. aureus RN4220 ugtP deletion mutant; OD600 growth, 16 h; some inactives read as strong as hits; growth inhibition, % (concentration not given with the values); actives 0.54% (n = 330,000);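 active = z-score under -3 and OD600 up to 0.15 on both plates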;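 note: plate controls were untreated wells for no effect and antibiotic for full effect; wells of about 80 µL received 100 nL stock; the first replicate is given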
BJeLR lethal: BJeLR cell viability loss; BJeLR (HRASV12) viability, CellTiter-Glo ATP luminescence, 48 h; reference of the scale not given here; inhibition, % (concentration not given with the values); actives 0.17% (n = 300,000); AID 1554;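 active = replicate mean above 50%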;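 note: 50 nL library stock added to about 25 µL; numbers are from one replicate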
Mtb hypoxia inh: inhibitors of hypoxia-regulated fluorescent reporter in Mycobacterium tuberculosis; fluorescence inhibition, % (test concentration not listed); actives 0.1% (n = 300,000); M. tuberculosis hypoxia-regulated fluorescent reporter, fluorescence;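 active = 35 to 45% if threefold the growth effect, above 45% if 1.5-fold the growth effect; inactive = the rest, general growth blockers included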;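 note: wells of about 50 µL received 100 nL stock; 0% = vehicle wells and 100% = reference inhibitor wells; whole bacteria with a GFP reporter of the hypoxia response; strong numbers were not always called active; many hits fall short of the cut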
Sa RN4220 lethal: kills Staphylococcus aureus RN4220. inhibition, % (concentration not given with the values). S. aureus RN4220 growth, OD600, 16 h. actives 0.33% (n = 330,000);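 active = z-score of -3 or lower and OD600 up to 0.18 on both plates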;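 note: plate controls were untreated cells for no effect and reference antibiotic for full effect; stock transfer was 100 nL into about 80 µL; one replicate is shown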
Autofluor counter: flagged as autofluorescent in microsphere protease counterscreen; compound autofluorescence counterscreen, microsphere flow cytometry; active compounds read high; AID 624483; actives 3.1% (n = 360,000); fluorescence intensity (concentration not given with the values);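 active = at least 3 SD above the mean of all compounds, about 16000 in these data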;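 note: 100 nL of 1 mM stock went into each well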
Mtb hypoxia inh growth: recorded beside Mtb hypoxia inh, whose call it bears; growth inhibition, %; measured here: M. tuberculosis growth (absorbance);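 0% = vehicle and 100% = reference antibiotic; read after six days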
Active calls of the source: *; x = not tested or not shown.

| # | molecule | ugtP null kill | Sa RN4220 lethal | PrP 5UTR inh | Mtb hypoxia inh growth | Autofluor counter | Mtb hypoxia inh | BJeLR lethal |
| --- | --- | --- | --- | --- | --- | --- | --- | --- |
| 1 | O=C(Cc1ccc(-n2c(=O)c3ccccc3n(CC(=O)Nc3ccc(F)cc3F)c2=O)cc1)NCc1ccco1 | 2.8 | 1.8 | -20.7 | 2.0 | 3878 | 1.2 | 0.7 |
| 2 | O=C(NNC(=O)C1C2C=CC(C2)C1C(=O)O)c1ccccc1 (stereo not given) | 13.9 | 0.5 | -21.9 | 6.1 | 5451 | 2.1 | -13.1 |
| 3 | Cc1nn(-c2ccccc2)c(C)c1-c1ccccc1O | 2.0 | 5.3 | -26.7 | 6.1 | x | 20.3 | -8.1 |
| 4 | COc1ccc(OCC(O)Cn2c(Nc3cccc(C)c3)nc3c2c(=O)n(C)c(=O)n3C)cc1 (stereo not given) | 3.4 | 9.2 | -3.3 | 0.4 | 11102 | 13.7 | 9.0 |
| 5 | Cc1cc(=O)[nH]c(SCC(=O)NC2CCCCCC2)n1 | 4.6 | 4.1 | -12.0 | 2.4 | 2951 | 4.2 | x |
| 6 | Cc1ccccc1NC(=O)Nc1cccs1 | -0.7 | 5.8 | -20.0 | x | 2650 | x | -1.5 |
| 7 | Cc1csc(Sc2ccc([N+](=O)[O-])cc2C(=O)OCC(=O)NC2CCCC(C)C2C)n1 (stereo not given) | -6.7 | 6.2 | -32.5 | 1.4 | 16483* | 4.8 | -6.0 |
| 8 | CCn1c(SCC(=O)Nc2cc(C)on2)nnc1-c1c[nH]c2ccccc12 | -5.0 | -2.1 | 5.0 | 7.5 | 5972 | 6.3 | -13.3 |
| 9 | Cc1ccccc1SCC(=O)NN=Cc1ccc(F)cc1 | 3.9 | 4.5 | x | 9.4 | x | 6.0 | x |
| 10 | CCCCCN(C(=O)CCC(=O)OCC(=O)c1cccc(OC)c1)c1c(N)n(CCCC)c(=O)[nH]c1=O | x | x | -22.2 | x | 6166 | x | 0.7 |
| 11 | CC1=C(C)[N+](=O)C2(O)CCCCC2(C)N1[O-] (stereo not given) | -10.6 | -7.8 | -14.8 | 9.9 | 2880 | -0.5 | 12.6 |
| 12 | CCN(CC(=O)Nc1c(F)cccc1F)C(=O)CCSc1ccc(F)cc1 | 0.7 | 1.0 | -8.0 | 2.0 | x | 6.4 | 3.2 |
| 13 | CC1(C)CC(=O)C=C(NCC(=O)O)C1 | 13.3 | 1.7 | -12.1 | 0.6 | 7191 | 4.8 | 0.0 |
| 14 | COc1ccc(CCC(=O)Nc2cc(S(=O)(=O)N3CCCCC3)ccc2N(C)C)cc1 | 4.0 | 1.0 | -14.5 | 1.9 | 5479 | -0.8 | x |
| 15 | COC(=O)Cn1cc(/C=C/[N+](=O)[O-])c2ccccc21 | 4.2 | 2.2 | -8.4 | 9.0 | 4476 | 6.4 | -12.4 |
| 16 | Cc1ccccc1OCCC(=O)Nc1cccc(S(=O)(=O)Nc2ccccc2Cl)c1 | -13.1 | 9.0 | 5.2 | 2.3 | 2146 | 1.3 | -3.9 |
| 17 | CN(C)c1nc(SCc2ccccc2)nc(N2CCOCC2)n1 | 18.8 | 1.5 | -11.8 | 5.0 | 4104 | 11.8 | 6.3 |
| 18 | CN(c1ccccc1)S(=O)(=O)c1ccc(C(=O)NNC(=O)c2ccccc2)cc1 | -1.7 | 3.3 | -21.5 | 0.1 | 8611 | 5.4 | x |
| 19 | CC(=O)C1=C(O)C(=O)N(c2ccc(Br)cc2)C1c1cccc(F)c1 (stereo not given) | 1.5 | 3.0 | -31.2 | 6.0 | 4184 | 7.5 | -5.8 |
| 20 | O=C(NNC(=O)C1CCCCC1)c1ccncc1 | 0.4 | 4.5 | -12.6 | 4.6 | 3592 | 3.4 | 0.3 |
| 21 | Cc1[nH]n(C(N)=S)c(=O)c1N=Nc1ccc2ccccc2c1 | -7.3 | 1.1 | -88.0 | 6.9 | 2014 | 17.6 | 2.7 |
| 22 | CC(C)Cn1c(-c2ccco2)n[nH]c1=S | 4.3 | 6.0 | -39.1 | 9.9 | 9917 | 9.5 | -6.6 |
| 23 | O=C(O)CCCN1C(=O)c2ccccc2Sc2ncccc21 | -4.7 | 0.8 | -13.2 | 2.7 | 3438 | 0.5 | -1.1 |
| 24 | CCCCN(C)C(=O)c1coc(=O)c2ccccc12 | 7.6 | 0.0 | -11.3 | x | 4800 | x | 5.5 |
| 25 | COc1cccc(OC)c1OCCCN1CCC(Cc2ccccc2)CC1 | 6.5 | 2.3 | -8.8 | -5.5 | 3221 | -7.4 | 27.4 |
| 26 | CC(C)c1nnc(SCC(=O)Nc2ccc3c(c2)OCCO3)n1C | 5.5 | 0.8 | -15.4 | -9.4 | 3422 | -8.6 | 1.1 |
| 27 | Cc1cccc(N2CCN(C3CCCCC3NS(=O)(=O)c3ccccc3)CC2C)c1 (stereo not given) | 14.5 | 5.0 | -11.1 | 2.4 | 6469 | -1.2 | 7.9 |
| 28 | CCOc1cc(N2CCOCC2)c(OCC)cc1NC(=O)Cn1nc(C)c([N+](=O)[O-])c1C | 5.4 | 1.5 | -11.9 | 5.9 | 6569 | 3.4 | -8.1 |
| 29 | CCN1CCN(c2ccc([N+](=O)[O-])cc2C=C2C(=O)NC(=O)NC2=O)CC1 | x | x | -5.8 | x | 2563 | x | 3.2 |
| 30 | CCC(C)c1ccc(S(=O)(=O)N2CCN(c3ccccn3)CC2)cc1 (stereo not given) | 10.2 | 1.8 | -11.5 | 12.8 | 3894 | 6.6 | 5.1 |
| 31 | COc1ccc(-c2nsc(SCC(=O)Nc3ccc4c(c3)OCO4)n2)cc1 | x | x | -26.5 | x | 2372 | x | -13.2 |
| 32 | C=CCn1c(SCCCCCC)nc(O)cc1=O | 7.4 | 3.8 | -8.1 | 4.1 | 6151 | 12.9 | -3.4 |
| 33 | COc1cccc(C2c3c(oc4ccccc4c3=O)C(=O)N2Cc2ccco2)c1 (stereo not given) | 8.6 | 3.2 | -7.5 | -7.4 | 3480 | -2.4 | 0.0 |
| 34 | Cc1ccc(C2CC(=O)NC(SCC(=O)OCc3ccccc3)=C2C#N)o1 (stereo not given) | 26.6 | 0.2 | -0.5 | x | 4374 | x | -1.4 |
| 35 | O=c1oc2cc(O)ccc2cc1-c1ccc(F)cc1 | 0.7 | 8.4 | -44.2 | x | 4641 | x | 18.0 |
| 36 | CNC(=O)COc1ccc(S(=O)(=O)N2CCCC2)cc1 | 1.8 | 1.3 | 2.5 | 12.8 | 4374 | 4.5 | -6.1 |
| 37 | CCC(C)NC(=O)Cc1c(OC)ccc2cc(Br)ccc12 (stereo not given) | 1.6 | 0.2 | -23.4 | 9.2 | 4642 | 16.9 | -4.1 |
| 38 | O=C(Oc1ccc2c3c(c(=O)oc2c1)CCCC3)c1cccs1 | 5.0 | 0.0 | -21.4 | -8.8 | 2571 | -11.9 | -4.7 |
| 39 | COc1ccccc1-c1ccc(NC2CCCC2)nn1 | 2.5 | 6.0 | -33.8 | 30.1 | 3278 | 22.3 | 11.3 |
| 40 | Cn1c(SCC(=O)N2CCCC2=O)nnc1-c1ccccc1F | -0.7 | 4.0 | -10.9 | 10.3 | 3921 | -6.0 | -5.1 |
| 41 | COc1ccc(C(=O)Oc2ccc(C(=S)N3CCCC3)cc2)cc1OC | 4.5 | 3.2 | x | 7.9 | x | -0.3 | -8.2 |
| 42 | O=C(O)CCNC(=O)COc1ccc2c3c(c(=O)oc2c1)CCCC3 | -0.1 | 3.1 | -21.3 | -2.0 | 3944 | -1.3 | 3.9 |
| 43 | Cc1cc(C(=O)CSc2nnc(-c3cccnc3)n2-c2ccccc2)c(C)n1CC1CCCO1 (stereo not given) | 1.2 | 6.9 | -13.1 | 6.0 | 4119 | 14.9 | 8.6 |
| 44 | Cn1cnnc1Sc1ccc(/C=C(\CCC(=O)O)c2nc3ccccc3s2)cc1[N+](=O)[O-] | x | x | 4.7 | x | 3790 | x | 3.1 |
| 45 | O=C(Nc1ccc(N2CCOCC2)c(Cl)c1)c1c(F)c(F)c(F)c(F)c1F | -2.3 | -0.6 | 9.3 | x | 4464 | x | -1.2 |
| 46 | COc1ccccc1NC(=O)Nc1nc(CC(=O)NC2CCCC2)cs1 | 5.8 | -1.3 | -28.4 | -10.3 | 5924 | -5.8 | 10.8 |
| 47 | CCOC(=O)c1cccc(NC(=S)NCc2ccc(C)cc2)c1 | 7.1 | -1.7 | 7.9 | 2.9 | 4364 | 6.5 | x |
| 48 | CC(=O)c1cc2c(cc1NC(=O)CCc1c(C)nc3ncnn3c1C)OCO2 | 4.3 | 2.0 | -16.0 | 7.5 | 5406 | 7.6 | x |
| 49 | COc1ccc2[nH]c(C)c(CCN3CCC(=O)C(C)C3C)c2c1 (stereo not given) | 3.2 | 4.0 | -16.2 | 0.3 | 5149 | 2.2 | -4.0 |
| 50 | CC(=O)N1CCN(C(=O)c2cc(C)oc2C)CC1 | -0.1 | -1.3 | -16.4 | 3.3 | 3599 | 0.1 | x |

Ordered by count of non-hydrogen atoms (high to low): part of the list above.
| # | molecule | ugtP null kill | Sa RN4220 lethal | PrP 5UTR inh | Mtb hypoxia inh growth | Autofluor counter | Mtb hypoxia inh | BJeLR lethal |
| --- | --- | --- | --- | --- | --- | --- | --- | --- |
| 43 | Cc1cc(C(=O)CSc2nnc(-c3cccnc3)n2-c2ccccc2)c(C)n1CC1CCCO1 (stereo not given) | 1.2 | 6.9 | -13.1 | 6.0 | 4119 | 14.9 | 8.6 |
| 48 | CC(=O)c1cc2c(cc1NC(=O)CCc1c(C)nc3ncnn3c1C)OCO2 | 4.3 | 2.0 | -16.0 | 7.5 | 5406 | 7.6 | x |
| 46 | COc1ccccc1NC(=O)Nc1nc(CC(=O)NC2CCCC2)cs1 | 5.8 | -1.3 | -28.4 | -10.3 | 5924 | -5.8 | 10.8 |
| 42 | O=C(O)CCNC(=O)COc1ccc2c3c(c(=O)oc2c1)CCCC3 | -0.1 | 3.1 | -21.3 | -2.0 | 3944 | -1.3 | 3.9 |
| 47 | CCOC(=O)c1cccc(NC(=S)NCc2ccc(C)cc2)c1 | 7.1 | -1.7 | 7.9 | 2.9 | 4364 | 6.5 | x |
| 50 | CC(=O)N1CCN(C(=O)c2cc(C)oc2C)CC1 | -0.1 | -1.3 | -16.4 | 3.3 | 3599 | 0.1 | x |

Other records follow.
| # | molecule | ugtP null kill | Sa RN4220 lethal | PrP 5UTR inh | Mtb hypoxia inh growth | Autofluor counter | Mtb hypoxia inh | BJeLR lethal |
| --- | --- | --- | --- | --- | --- | --- | --- | --- |
| 51 | NC(=O)CCc1c[nH]c2ccccc12 | -0.4 | -0.2 | -24.5 | x | 4834 | x | 0.0 |
| 52 | CC(C)C[C@H](NC(=O)[C@H](Cc1ccccc1)n1c(=O)[nH]c2ccccc2c1=O)C(=O)N1CCC[C@H]1C(=O)O | -1.1 | 0.5 | -30.9 | x | 5273 | x | 1.9 |
| 53 | Cc1ccccc1Cn1nnc(-c2ccc(F)cc2)n1 | 4.5 | 1.4 | -15.9 | 19.5 | 4344 | 24.4 | -17.3 |
| 54 | Cc1ccc(-c2cc(=O)[nH]c3ccccc23)cc1 | -6.2 | 2.0 | -30.2 | x | 4241 | x | -6.6 |
| 55 | Cc1ncc(/C=C2\C(=O)Nc3ccccc32)[nH]1 | -0.3 | 4.7 | x | -6.0 | x | -2.3 | 12.8 |
| 56 | Nc1[nH]ncc1N=Nc1ccc(Cl)cc1 | -9.5 | -6.1 | -54.0 | 9.9 | 4026 | 4.4 | 2.0 |
| 57 | COc1ccccc1C1CCN(Cc2ccc(Cl)cc2Cl)CC1 | 8.2 | 4.3 | -2.7 | 8.5 | 4562 | 3.7 | 1.8 |
| 58 | COc1ccc(NC(=O)CSc2nc3ccccc3c(=O)n2CCNC(C)=O)cc1 | -11.1 | -4.8 | -17.7 | 2.2 | 12758 | -17.8 | -0.4 |
| 59 | CC#CCN1C=C(C(=O)OCC)C(C)N(Cc2ccc(Br)cc2)S1(=O)=O (stereo not given) | 24.0 | -0.9 | -10.4 | -1.7 | 3657 | 6.1 | x |
| 60 | O=C(CCN1CCOCC1)Nc1ccccc1 | 5.0 | 4.8 | -26.6 | 12.5 | 3792 | 15.8 | 4.6 |
| 61 | CCOc1ccccc1NC(=O)NC1(C(=O)NCc2cccnc2)CCCCC1 | 0.9 | 0.7 | -11.7 | -0.3 | 4051 | 0.3 | -2.1 |

From PubChem BioAssay
